Screening data: PubChem, several laboratories
E coli growth = E. coli growth inhibition, primary screen, OD600. Escherichia coli growth, 23 h; hits give low values. OD600 absorbance (concentration not given with the values). 330,000 tested, 0.21% active. AID 1053175, 2014;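 active = OD600 absorbance below the run mean of sample wells minus 3.6 SD, in any replicate, cut at about 0.56 in these data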;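 also: stock transfer was 300 nL into about 60 µL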
UCH37 inh = inhibitors of human UCH37 deubiquitinase, primary screen, biochemical, Ub-AMC cleavage, fluorescence. Ubiquitin carboxyl-terminal hydrolase isozyme L5 (Homo sapiens), Q9Y5K5. purified proteasome/UCH37. inhibition, % (concentration not given with the values). 330,000 tested, 0.33% active. AID 588478, 2011;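 active = mean of two replicates above 20%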;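 also: 0% = compound-free wells with enzyme and 100% = wells lacking proteasome; stock transfer was 100 nL into about 20 µL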
Target sequence (Q9Y5K5 whole entry, looked up): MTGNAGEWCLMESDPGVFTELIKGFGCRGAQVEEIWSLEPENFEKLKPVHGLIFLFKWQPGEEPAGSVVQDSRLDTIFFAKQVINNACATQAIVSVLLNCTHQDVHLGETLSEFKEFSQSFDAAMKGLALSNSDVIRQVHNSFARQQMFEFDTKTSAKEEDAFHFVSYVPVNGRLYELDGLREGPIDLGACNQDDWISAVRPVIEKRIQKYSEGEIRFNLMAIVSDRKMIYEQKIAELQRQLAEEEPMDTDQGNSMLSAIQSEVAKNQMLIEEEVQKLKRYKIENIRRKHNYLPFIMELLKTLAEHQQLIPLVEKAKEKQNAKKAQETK
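Reagent: Ub-AMC substrate; assay system: Proteasome-associated human UCH37 deubiquitinase; controls: no-proteasome and no-compound wells; read-out: % inhibition of Ub-AMC cleavage fluorescence; timing: 30 min preincubation with enzyme, 25 min cleavage at room temperature; signal: AMC fluorescence from Ub-AMC cleavage, excitation 355 nm, emission 460 nm; buffer or medium: Tris-HCl pH 7.4 plus ovalbumin, ATP-MgCl2, DTT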
rRNA inh HTS = reduced GFP signal of wild-type E. coli, primary screen, bacterial rRNA inhibitor project, GFP/RFP fluorescence, OD600, single point; E. coli WT GFP vs humanized-ribosome RFP mutants, 24 h; hits give low values; DMSO median 0, no signal -100; 350,000 tested, 1.6% active; AID 720706, 2013; GFP signal change (wild-type ribosome), % (test concentration not listed);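 active = significant combined selectivity score with lowered wild-type GFP, culture density cut under 30%, mutant RFP and density less affected; inactive = any of these conditions unmet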; also: one replicate is shown; some compounds called inactive have numbers as strong as hits
ALR H2O2 inh = inhibitors of human ALR sulfhydryl oxidase, primary screen, biochemical, H2O2 detection, HRP-luminol luminescence, single point. purified ALR, DTT oxidation. inhibition, % (test concentration not listed). 290,000 tested, 3.8% active. AID 485317, 2010;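 active = mean and each replicate at 75% or more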;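 also: stock transfer was 7.5 nL into about 7.5 µL; 0% = neutral wells and 100% = wells with inactivated enzyme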
HNF4A DNA FP = change in binding of human HNF4A to DNA, primary screen, biochemical, fluorescence polarization, FITC-DNA | Hepatocyte nuclear factor 4-alpha (Homo sapiens), P41235 | 1 h | activity change, % at 10 µM | 360,000 tested, 0.3% active; in the data active = activity change above about 30%, passing the limit was not always enough;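 also: controls were the assay level and a saturating level of protein; the project sought stronger binding though the title names inhibitors; some compounds called inactive have numbers as strong as hits; positive values seem to mean higher polarization but the record does not say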
Beta2AR agonist = beta2AR agonists driving receptor internalization, primary screen, cell-based, FAP fluorogen, flow cytometry; Beta-2 adrenergic receptor (Homo sapiens), P07550; Am2.2-beta2AR cells; reference of the scale not given here; response, % (no concentration beside the values); 340,000 tested, 0.43% active;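 active = response above a set limit, near 3 SD of response in nonfluorescent compounds, cut at about 42% in these data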;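 also: stock transfer was 100 nL into about 11 µL; a reference agonist was the positive control; negative values mostly stem from fluorescent compounds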
Target sequence (P07550 whole entry, looked up): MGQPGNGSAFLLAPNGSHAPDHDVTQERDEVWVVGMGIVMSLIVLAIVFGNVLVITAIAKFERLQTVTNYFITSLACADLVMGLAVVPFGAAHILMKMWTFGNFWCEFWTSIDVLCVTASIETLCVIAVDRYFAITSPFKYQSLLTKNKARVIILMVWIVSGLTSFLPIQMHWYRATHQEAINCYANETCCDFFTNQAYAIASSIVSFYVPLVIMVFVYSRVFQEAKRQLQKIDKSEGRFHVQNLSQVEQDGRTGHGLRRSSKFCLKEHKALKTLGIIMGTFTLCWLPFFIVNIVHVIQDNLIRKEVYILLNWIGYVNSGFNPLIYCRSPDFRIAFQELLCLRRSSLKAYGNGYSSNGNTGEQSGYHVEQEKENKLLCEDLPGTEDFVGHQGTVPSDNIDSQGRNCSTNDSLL
FGF22 binding = binders of human FGF22 protein, primary screen, FGF22 synaptogenesis inhibitor project, biophysical, thermal shift, single point | recombinant FGF22 thermal shift, SYPRO orange fluorescence; percent of sucrose octasulfate shift, DMSO zero | calls only at 9.99 µM | 340,000 tested, 1.5% active | AID 651658, 2012;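 active = melting point raised past a set limit in the mean and every replicate; three in four hits are not shown here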
Target sequence (Q9HCT0 whole entry, looked up): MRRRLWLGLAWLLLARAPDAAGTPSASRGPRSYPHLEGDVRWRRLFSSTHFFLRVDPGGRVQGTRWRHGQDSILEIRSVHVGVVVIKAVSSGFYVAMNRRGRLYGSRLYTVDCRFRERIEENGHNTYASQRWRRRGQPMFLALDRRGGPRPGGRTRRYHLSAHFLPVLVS
rRNA inh HTS OD600 = recorded beside rRNA inh HTS, whose call it bears; OD600 change, %; measured here: OD600 growth;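 optical density of the mix in the first replicate; 0 = DMSO median and -100 = no signal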
rRNA inh HTS RFP = second read-out of rRNA inh HTS, no call of its own (marks repeat the call); RFP signal change, %; measured here: RFP humanized mutant strains;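 first replicate; 0 = DMSO median and -100 = no signal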
* marks the source's active call; other numbers are inactive results; i = inactive; . = no result given; & = joins results of further samples.

SMILES	E coli growth	UCH37 inh	rRNA inh HTS	rRNA inh HTS OD600	rRNA inh HTS RFP	ALR H2O2 inh	HNF4A DNA FP	Beta2AR agonist	FGF22 binding
O=C(Cc1ccc(Cl)cc1)Nc1ccc(N2CCN(C(=O)c3ccco3)CC2)c(Cl)c1	0.72	1.1	.	.	.	-16	-1.3	2	.
CCC(C)N1CCN(C(=O)c2cccs2)CC1 (stereo not drawn)	0.66	1.8	.	.	.	0	-0.3	-3	.
Cc1cccc(NC(=O)COC(=O)CN2C(=O)C3CCCCC3C2=O)c1C (stereo not drawn)	.	.	1	-9	-4.0	.	3.5	.	i
CC[n+]1c(/C=C/c2cc([N+](=O)[O-])ccc2O)ccc2ccccc21	.	.	-3	3	-3.5	-50	-2.0	-10	i
COCCCNC(=O)CN(C1CCCCC1)S(=O)(=O)c1ccc(C)cc1	0.71	0.6	3	8	2.5	-2	-2.0	-4	i
O=C(Nc1cccc(-c2cc3ccccc3oc2=O)c1)c1ccc(Br)o1	0.73	-8.6	3	-2	-3.9	-4	0.7	-12	.
Cc1ccc(S(=O)(=O)N2CCCC(C(=O)NCC3COCCO3)C2)cc1 (stereo not drawn)	0.66	0.9	.	.	.	-12	-2.4	1	.
Cc1csc(NC(=O)CN(C)S(=O)(=O)c2cccc3cccnc23)n1	0.73	9.5	2	-3	-7.1	-34	4.3	9	i
Cc1c(OC(C)C(=O)NCc2ccccn2)ccc2c3c(c(=O)oc12)CCCC3 (stereo not drawn)	0.67	-58	-48	-68	-2.9	-3	0.1	7	i
CC1CCN(C(=O)c2ccc3ccccc3c2)CC1	0.66	2.2	-9	-11	1.1	-1	-3.4	-3	i
Cc1cccc(CCN=c2c([N+](=O)[O-])nn(-c3ccccc3)n2O)c1	0.67	3.3	-36	-34	2.1	-4	1.0	13	i
CC(C)(C)c1ccc(C(=O)N2CCC(C(=O)NC3CC3)CC2)cc1	0.69	-0.1	0	11	0.2	-4	2.0	4	i
CCCn1cnc2cc(NC(=O)c3cccs3)ccc21	0.69	0.8	9	13	-2.8	1	1.4	-18	i
CN(CC(=O)NCc1ccc(Cl)cc1)S(=O)(=O)c1cccs1	0.63	-0.2	-5	-5	-0.5	-1	2.3	2	i
O=C(CSc1nc2[nH]ncc2c(=O)[nH]1)c1ccc(Cl)cc1	0.7	3.8	9	11	2.4	1	.	.	i
Fc1ccc(-c2ccc(Nc3cccc(F)c3)nn2)cc1	0.69	2.2	0	12	0.3	1	2.6	2	i
COc1ccc(C(=O)Nc2nc(C)c(C(C)=O)s2)cc1S(=O)(=O)N1CCOCC1	0.65	-10	27	21	6.5	0	6.0	-1	i
CC(C)c1ccc(C(=O)N2CCCN(C(=O)c3ccc(C(C)C)cc3)CC2)cc1	0.69	12	.	.	.	-15	-3.5	-6	.
COC(=O)Cn1cnc2c(nnn2-c2ccc(F)cc2)c1=O	0.72	-0.5	-2	0	-1.0	3	0.6	7	i
CSc1nnc(Cn2c(=O)sc3ccccc32)n1-c1cccc(Cl)c1	0.74	2.5	.	.	.	9	9.0	4	.
Cc1nc(COC(=O)c2c(C)nn(-c3ccccc3)c2C)cs1	0.7	5.0	.	.	.	2	2.2	-2	.
N#CCCN(C(=O)COc1ccc(F)cc1Br)c1ccccc1F	0.69	0.5	-16	-12	-3.0	-12	6.5	0	i
COCCCNC(=O)c1sc2ncn(CC(=O)Nc3ccc(C)c(Cl)c3)c(=O)c2c1C	0.71	1.9	.	.	.	-2	0.7	-16	i
CN(C)S(=O)(=O)c1ccc(Cl)c(C(=O)NC2CCN(Cc3ccccc3)C2)c1 (stereo not drawn)	0.66	1.7	8	9	-2.7	-4	-2.0	-17	i
Cc1ccc(S(=O)(=O)c2c(C)cc(C)nc2Cl)c(C)c1	0.73	3.2	.	.	.	-7	-2.1	-28	.
O=C1NC(=Nc2ccccc2)S/C1=C\c1cccn1-c1ccccc1	.	0.9	.	.	.	-10	3.5	-2	.
O=C(CN1CCN(c2ccccc2O)CC1)NC(=O)NC1CCCC1	0.71	1.2	10	7	-5.6	-4	2.5	-1	i
CCOC(=O)C1=CN(C(C)C)CCC1=O	0.7	1.0	0	0	-3.7	.	-2.5	0	i
N#Cc1ccc(CSc2nnc(-c3cccc(S(=O)(=O)N4CCCCC4)c3)o2)cc1	0.81	2.9	.	.	.	2	-0.9	-1	.
Cc1nn(CC(=O)NCC(C)c2ccccc2)c(=O)c2cccn12 (stereo not drawn)	0.7	-2.4	13	10	1.2	-16	-2.5	3	i
CC(O)[C@H]1CNC(=O)C(=O)N1CCc1cccc2ccccc12 (stereo partly drawn)	.	-1.4	-7	-9	-0.4	-63	-2.8	-11	i
O=C(Nc1ccc2nc3n(c(=O)c2c1)CCCCC3)C(=O)N1CCN(c2ccccc2)CC1	0.76	5.4	-2	10	-4.6	33	2.8	1	i
CN(C)c1ccc(CNC(=O)CN(C)S(=O)(=O)c2cccc3cccnc23)cc1	0.74	3.6	1	2	0.0	9	-2.7	12	i
O=C(CNC(=O)/C=C/c1ccco1)N=Nc1c(O)[nH]c2ccccc12	0.69	8.3	7	18	-3.4	49	-48	5	i
CCOc1ccc(N2C(=O)CC(NCC3CCCO3)C2=O)cc1 (stereo not drawn)	0.67	1.4	14	8	3.3	5	1.0	4	i
CCc1ccccc1NC(=O)c1ccc([N+](=O)[O-])s1	0.61	2.8	2	-4	-0.2	-14	0.4	-10	i
COc1ccc(Br)cc1S(=O)(=O)n1ccnc1C	0.72	0.5	.	.	.	-3	-1.4	4	.
O=C(NNS(=O)(=O)c1ccc(F)cc1)c1ccc([N+](=O)[O-])cc1	0.69	1.3	.	.	.	22	0.6	14	.
Cc1c(-c2ccccc2)c(P(=O)(N2CCOCC2)N2CCOCC2)c2ccccn12	0.68	i	-3	3	4.5	23	7.4	-5	i
O=C(c1cccc(F)c1)N1CCCc2ccccc21	0.69	4.3	-1	-1	0.6	-3	3.9	6	i

Sorted by molar mass (ascending): part of the list above.
SMILES	E coli growth	UCH37 inh	rRNA inh HTS	rRNA inh HTS OD600	rRNA inh HTS RFP	ALR H2O2 inh	HNF4A DNA FP	Beta2AR agonist	FGF22 binding
Cc1nc(COC(=O)c2c(C)nn(-c3ccccc3)c2C)cs1	0.7	5.0	.	.	.	2	2.2	-2	.
O=C(CN1CCN(c2ccccc2O)CC1)NC(=O)NC1CCCC1	0.71	1.2	10	7	-5.6	-4	2.5	-1	i
CN(C)c1ccc(CNC(=O)CN(C)S(=O)(=O)c2cccc3cccnc23)cc1	0.74	3.6	1	2	0.0	9	-2.7	12	i
N#Cc1ccc(CSc2nnc(-c3cccc(S(=O)(=O)N4CCCCC4)c3)o2)cc1	0.81	2.9	.	.	.	2	-0.9	-1	.

Continued:
SMILES	E coli growth	UCH37 inh	rRNA inh HTS	rRNA inh HTS OD600	rRNA inh HTS RFP	ALR H2O2 inh	HNF4A DNA FP	Beta2AR agonist	FGF22 binding
COc1ccc(C(=O)c2ccc(N(C)C)cc2)c(OC)c1	0.73	4.5	-8	-1	-6.9	96*	-1.2	-5	i
COc1ccc(-c2nc(-n3c(C)c(C(C)=O)c(C(C)=O)c3C)sc2C)cc1	0.71	3.4	.	.	.	-9	3.1	3	.
Nc1c(Cl)c(Cl)nc(C(=O)OCC(=O)NCc2ccccc2)c1Cl	0.69	0.3	-1	-15	0.6	1	5.5	-4	i
O=C(NNC(=O)c1cc([N+](=O)[O-])ccc1Cl)c1cccnc1	0.65	2.9	-9	-9	-1.2	-16	-2.6	-9	i
CCC(C)(C)NC(=O)CN(C(=O)CNS(=O)(=O)c1ccc(F)cc1)c1ccc2c(c1)OCCO2	0.66	1.1	-3	5	0.1	.	2.9	4	i
Cc1cccc(NCc2ccc([N+](=O)[O-])s2)c1	0.64	4.5	-9	-4	6.9	98*	2.8	8	i
COc1ccc(CCNC(=O)C(=O)NCc2ccc(Cl)cc2)cc1OC	0.7	1.5	6	21	-11	-2	-2.8	0	i
CCOC(=O)N1CCC(NC(=O)c2cnn3c(C(F)(F)F)cc(-c4cccc(OC)c4)nc23)CC1	0.72	-199	13	11	-0.2	0	.	.	i
O=C(Nc1ccon1)c1ccccc1F	0.68	-1.1	.	.	.	1	3.0	15	.
CC1CCCC(C)N1C(=O)COc1cccc(Oc2ccccc2)c1 (stereo not drawn)	0.71	5.4	-51	-81	-20	1	-2.4	-11	i
COc1ccccc1OCC(=O)Nc1ccc(S(=O)(=O)N(C)c2ccccc2)cc1	0.73	3.4	-6	-26	4.1	-1	0.6	-2	i
CCn1c(SCC(=O)NNC(=O)c2ccc(OC)cc2)nnc1C(C)C	0.73	5.5	14	17	-0.5	-2	2.1	76*	i
COc1cccc(NC(=O)C(C)SCc2ccccc2)c1 (stereo not drawn)	0.69	-0.2	-25*	-7.1*	-0.5*	5	2.4	-2	i
COc1ccc(C(CNC(=O)c2c(C)nn(Cc3ccc(C)cc3)c2Cl)N2CCOCC2)cc1 (stereo not drawn)	0.69	0.7	-14	-16	1.1	-6	1.2	-1	i
CCOc1ccc(-c2nc(N)ncc2-c2ccc(Cl)cc2)c(O)c1	0.66	1.3	-4	1	3.5	27	3.1	-8	i
COc1ccc(NC(=O)CSc2nccn2Cc2ccco2)cc1OC	0.7	0.5	13	5	0.8	55	3.1	0	i
CC(C)Oc1ccc(CN=C(N)N=C(N)N)cc1Cl	0.7	1.6	6	5	0.3	-24	7.5	4	i
COc1ccc(OC)c(-c2cc(C(=O)N3CCN(c4ncccn4)CC3)c3ccccc3n2)c1	0.73	-5.5	.	.	.	-10	-3.0	11	.
O=C(N/N=C/c1ccc(O)cc1O)C1CC1	.	.	10	6	0.7	59	1.9	-10	i
CC1(C(=O)NS(=O)(=O)Cc2cccc(Cl)c2)CCN1C(=O)CC1CCCC1 (stereo not drawn)	.	.	0	-5	-1.9	.	4.5	.	i
O=c1c2ccccc2c(-c2ccccc2)nn1-c1ccc(Cl)c(Cl)c1	0.69	-6.3	.	.	.	-14	3.4	-2	.
COC(=O)c1ccc(OCC(=O)NC2CCCCCC2)cc1	0.67	-0.2	-18	-19	-7.5	-1	-1.5	9	i
CCOC(=O)C1=C(C)C(c2ccccc2OC)NC(=O)N1 (stereo not drawn)	0.67	0.4	.	.	.	4	-0.3	-4	.
CC(=O)O[C@H]1C[C@@H]2CC[C@@H]3[C@H](CC[C@@]4(C)[C@H]3C[C@H]([N+]3(C)CCCCC3)[C@@H]4OC(C)=O)[C@@]2(C)C[C@@H]1[N+]1(C)CCCCC1	.	2.3	.	.	.	.	5.0	1	i
C[C@H](CO)N1C[C@H](C)[C@@H](CN(C)C(=O)Nc2ccc(C(F)(F)F)cc2)Oc2ccc(NC(=O)Nc3ccc(C(F)(F)F)cc3)cc2C1=O	.	1.9	-3&-4	-6&1	0.2&-16	-1	2.4	0	i
O=C(O)CSc1nc(-c2ccccc2)nc2c1oc1ccccc12	0.63	6.9	.	.	.	.	0.9	8	.
COc1cc(CNc2ncn[nH]2)ccc1OCc1ccccc1C	0.7	5.9	-12	-14	1.7	-4	-2.5	2	i

This is a subset; count on the stated rates, not on these rows.
